Yeast UUG start: alters start codon recognition fidelity in yeast. S. cerevisiae UUG-firefly luciferase reporter, luminescence/redox ratio. activity score, % at 18.7 µM. hit rate 0.13% among 350,000. AID 602363;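 active = replicate mean at a twofold rise or more, about +100% in these data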;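 note: firefly luciferase made from a UUG start codon reports start codon fidelity; reporter light over untreated wells divided by growth signal over untreated wells; some hits fall short of that in this replicate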
HIV Env fusion: inhibitors of HIV Env-mediated cell fusion | HeLa-JRFL Env/CEM21 cell fusion, luciferase | inhibition, % at 12.3 µM | hit rate 1.1% among 360,000;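 active = mean replicate inhibition score of at least 50 and every replicate individually at or above 50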;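 note: 0% = plate neutral controls and 100% = maraviroc near 300 nM; one replicate is shown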
Active calls of the source: *; [ ] = remark or other dose. These rows are one share of the data; the hit share may differ from the screen's.

Yeast UUG start	HIV Env fusion	SMILES
10	0[16.7 µM]	COc1cccc(-c2ccc3c(c2)O[C@H](CN(C)C(C)=O)[C@@H](C)CN([C@H](C)CO)S3(=O)=O)c1
0	14[16.7 µM]	CO[C@H]1CN(C)C(=O)c2cc(NC(=O)c3ccc(F)cc3)ccc2OC[C@@H](C)N(C)C[C@@H]1C
-2	-305[16.7 µM]	COc1cccc(S(=O)(=O)N[C@@H]2C=C[C@H](CC(=O)NC3CCC3)O[C@@H]2CO)c1
29	14[16.7 µM]	CCCNC(=O)C[C@H]1CC[C@@H]2[C@H](COc3ccc(NC(=O)Nc4ccccc4F)cc3C(=O)N2C)O1
-3	15[16.7 µM]	COC(=O)C[C@H]1CC[C@@H]2[C@@H](COc3ccc(NC(=O)Nc4ccc(C)cc4)cc3C(=O)N2C)O1
4	-8[16.7 µM]	C[C@H](CO)N1C[C@H](C)[C@@H](CN(C)Cc2ccc(C(=O)O)cc2)OCCCC[C@H](C)Oc2ccc(NC(=O)C3CCCCC3)cc2C1=O
1	3[16.7 µM]	C[C@@H]1CN([C@@H](C)CO)C(=O)c2cccc(NC(=O)c3nc4ccccc4s3)c2O[C@H]1CN(C)Cc1ccc(Cl)c(Cl)c1
-17	-2[16.7 µM]	CN1CCN(C(=O)C[C@H]2C[C@H]3c4cc(NC(=O)c5cccnc5)ccc4O[C@H]3[C@@H](CO)O2)CC1
-4	7[16.7 µM]	C[C@@H]1CN([C@H](C)CO)C(=O)Cc2cc(NS(=O)(=O)c3cccs3)ccc2O[C@H]1CN(C)Cc1ccc2c(c1)OCO2
1	-10[16.7 µM]	C[C@@H]1CN([C@@H](C)CO)C(=O)c2cc(NC(=O)Nc3cccc4ccccc34)ccc2O[C@@H](C)CCCCO[C@@H]1CN(C)Cc1ccncc1
-2	6[16.7 µM]	C=CC[C@]1(C(=O)NCC(O)CO)N=C(c2ccc(OCCCO)cc2)O[C@H]1c1ccccc1 (stereo partly specified)
52	-1[16.7 µM]	CCC(=O)N[C@H]1CC[C@H](CC(=O)NCc2ccc(OC)cc2)O[C@@H]1CO

One compound at a time (already shown). Values in the order: Yeast UUG start	HIV Env fusion
Results for `CCC(=O)N[C@H]1CC[C@H](CC(=O)NCc2ccc(OC)cc2)O[C@@H]1CO` = 52	-1[16.7 µM]
Results for `CCCNC(=O)C[C@H]1CC[C@@H]2[C@H](COc3ccc(NC(=O)Nc4ccccc4F)cc3C(=O)N2C)O1` = 29	14[16.7 µM]
Results for `COC(=O)C[C@H]1CC[C@@H]2[C@@H](COc3ccc(NC(=O)Nc4ccc(C)cc4)cc3C(=O)N2C)O1` = -3	15[16.7 µM]
Results for `C[C@@H]1CN([C@H](C)CO)C(=O)Cc2cc(NS(=O)(=O)c3cccs3)ccc2O[C@H]1CN(C)Cc1ccc2c(c1)OCO2` = -4	7[16.7 µM]

(more compounds)
Yeast UUG start	HIV Env fusion	SMILES
-9	3[16.7 µM]	C[C@@H]1CN([C@H](C)CO)C(=O)c2cc(NS(C)(=O)=O)ccc2O[C@@H]1CN(C)S(=O)(=O)c1ccc(Cl)cc1
5	-4[16.7 µM]	C[C@H](CO)N1C[C@H](C)[C@H](CN(C)Cc2ccc(F)cc2)Oc2ncc(-c3ccccc3)cc2C1=O
4	-16[16.7 µM]	C[C@H](O)C#Cc1ccc2c(c1)O[C@H](CN(C)Cc1cccnc1)[C@H](C)CN([C@H](C)CO)S2(=O)=O
-6	-11[16.7 µM]	CC(C)NC(=O)N(C)C[C@@H]1Oc2ccc(NS(=O)(=O)c3cn(C)cn3)cc2CC(=O)N([C@@H](C)CO)C[C@@H]1C
-8	1[16.7 µM]	C[C@H]1CN([C@@H](C)CO)S(=O)(=O)c2ccc(-c3ccc(C(=O)N(C)C)cc3)cc2O[C@H]1CN(C)Cc1ccccc1C(=O)O
-11	16[16.7 µM]	O=C(C[C@@H]1CC[C@H](NC(=O)c2ccccc2)[C@H](CO)O1)Nc1ccc(-c2ccccc2)cc1
15	-36[16.7 µM]	C[C@H](CO)N1C[C@H](C)[C@H](CN(C)Cc2ccc(C(F)(F)F)cc2)OCCCC[C@H](C)Oc2ccc(NC(=O)CCC(F)(F)F)cc2C1=O
-11	17[16.7 µM]	C[C@@H]1CN([C@H](C)CO)C(=O)c2cc(-c3ccccc3)cnc2O[C@@H]1CN(C)C(=O)Cc1ccccc1
-4	25[16.7 µM]	COc1ccc(S(=O)(=O)Nc2ccc3c(c2)CC(=O)N([C@@H](C)CO)C[C@@H](C)[C@H](CN(C)S(C)(=O)=O)O3)cc1
-13	-22[16.7 µM]	CCCNC(=O)C[C@@H]1C[C@H]2c3cc(NC(=O)Nc4ccc(F)cc4)ccc3O[C@H]2[C@@H](CO)O1
6	5[16.7 µM]	CNC(=O)C[C@@H]1CC[C@H]2[C@@H](COc3ccc(NC(=O)C4CC4)cc3C(=O)N2C)O1
9	-10[16.7 µM]	COc1ccc(S(=O)(=O)N(C)C[C@H]2OCCCC[C@@H](C)Oc3ccc(NS(=O)(=O)c4c(C)noc4C)cc3C(=O)N([C@@H](C)CO)C[C@H]2C)cc1

Copied from the list.
COc1ccc(S(=O)(=O)Nc2ccc3c(c2)CC(=O)N([C@@H](C)CO)C[C@@H](C)[C@H](CN(C)S(C)(=O)=O)O3)cc1 | HIV Env fusion = 25[16.7 µM]
C[C@@H]1CN([C@H](C)CO)C(=O)c2cc(-c3ccccc3)cnc2O[C@@H]1CN(C)C(=O)Cc1ccccc1 | Yeast UUG start = -11
C[C@H](CO)N1C[C@H](C)[C@H](CN(C)Cc2ccc(F)cc2)Oc2ncc(-c3ccccc3)cc2C1=O | Yeast UUG start = 5

The listing continues:
Yeast UUG start	HIV Env fusion	SMILES
0	-21[16.7 µM]	CCC(=O)N1C[C@@H](O)COC[C@H]2O[C@H](CC(=O)N3CCCCC3)CC[C@@H]21
-15	-31[16.7 µM]	C[C@@H]1CN([C@H](C)CO)C(=O)c2cc(Br)cnc2O[C@H]1CN(C)Cc1ccncc1
-14	-20[16.7 µM]	CN(C)C(=O)C[C@H]1C[C@@H]2c3cc(N(C)C)ccc3O[C@@H]2[C@@H](CO)O1
-7	-8[16.7 µM]	C[C@@H]1CN([C@H](C)CO)C(=O)c2cc(C#C[C@@H](C)O)cnc2O[C@H]1CN(C)C(=O)Cc1ccccn1
0	-5[16.7 µM]	COCCNC(=O)C[C@@H]1C=C[C@H](NC(=O)NC2CCCCC2)[C@@H](CO)O1
15	-11[16.7 µM]	O=C(Cc1ccccn1)NCC[C@@H]1CC[C@H](NC(=O)Nc2ccc(F)cc2)[C@H](CO)O1
-17	-7[16.7 µM]	C[C@H](CO)N1C[C@H](C)[C@H](CN(C)C(=O)Cc2cccnc2)Oc2ncc(C#CCN(C)C)cc2C1=O
-5	3[16.7 µM]	CN(C)C(=O)C[C@H]1CC[C@H](NS(=O)(=O)c2ccccc2)[C@@H](CO)O1
-2	-56[16.7 µM]	Cc1noc(C)c1S(=O)(=O)N(C)C[C@@H]1OCCCC[C@H](C)Oc2ccc(NC(=O)CCC(F)(F)F)cc2C(=O)N([C@H](C)CO)C[C@@H]1C
-4	-16[16.7 µM]	Cc1ccc(S(=O)(=O)Nc2ccc3c(c2)C(=O)N([C@H](C)CO)C[C@@H](C)[C@H](CN(C)S(=O)(=O)c2cn(C)cn2)OCCCC[C@@H](C)O3)cc1
6	0[16.7 µM]	C[C@H]1CCCCO[C@@H](CN(C)Cc2ccccc2)[C@@H](C)CN([C@@H](C)CO)C(=O)c2cc(NC(=O)CCCN(C)C)ccc2O1
17	-22[16.7 µM]	C[C@H](O)C#Cc1cnc2c(c1)C(=O)N([C@@H](C)CO)C[C@@H](C)[C@@H](CN(C)C(=O)Nc1ccc(F)cc1)O2
-20	4[16.7 µM]	COc1ccc(S(=O)(=O)N(C)C[C@@H]2Oc3ccc(NC(=O)Nc4ccc5c(c4)OCO5)cc3C(=O)N([C@H](C)CO)C[C@H]2C)cc1
-3	-11[16.7 µM]	COCC#Cc1ccc2c(c1)O[C@@H](CN(C)C(=O)Nc1ccc(OC)cc1)[C@@H](C)CN([C@H](C)CO)S2(=O)=O
3	4[16.7 µM]	CCNC(=O)C[C@H]1CC[C@@H]2[C@@H](COc3ccc(NC(=O)c4ccccc4)cc3C(=O)N2C)O1
-4	-3[16.7 µM]	O=C(C[C@H]1CC[C@@H]2NC[C@H](O)COC[C@H]2O1)NCCc1ccncc1
-4	8[16.7 µM]	C[C@@H]1CN([C@@H](C)CO)C(=O)Cc2cc(NC(=O)Nc3ccc(C(F)(F)F)cc3)ccc2O[C@H]1CN(C)CC1CCCCC1
-2	13[16.7 µM]	O=S(=O)(N[C@@H]1CC[C@H](CCn2cc(-c3cccc(F)c3)nn2)O[C@@H]1CO)c1ccc(Cl)cc1
-13	15[16.7 µM]	C[C@@H]1CN([C@H](C)CO)C(=O)Cc2cc(NC(=O)Nc3cccc4ccccc34)ccc2O[C@H]1CN(C)S(=O)(=O)c1ccc(F)cc1
16	-21[16.7 µM]	COc1ccc(NC(=O)Nc2cccc3c2O[C@@H](CN(C)S(C)(=O)=O)[C@@H](C)CN([C@H](C)CO)C3=O)cc1
-31	-4[16.7 µM]	COCc1cn(CC[C@H]2CC[C@H](NC(=O)CCN3CCCCC3)[C@@H](CO)O2)nn1
11	22[16.7 µM]	C[C@H]1CN([C@@H](C)CO)S(=O)(=O)c2ccc(C3=CCCCC3)cc2O[C@H]1CN(C)C(=O)C1CCC1
-6	-15[16.7 µM]	C[C@H](CO)N1C[C@H](C)[C@@H](CN(C)C(=O)c2cnccn2)Oc2ncc(-c3cccc(C#N)c3)cc2C1=O
-23	-16[16.7 µM]	COc1cccc(NC(=O)N[C@@H]2CC[C@H](CC(=O)Nc3ccccc3)O[C@H]2CO)c1
3	-19[16.7 µM]	Cc1ccc(S(=O)(=O)N(C)C[C@H]2OCCCC[C@@H](C)Oc3ccc(NS(=O)(=O)c4ccccc4)cc3C(=O)N([C@H](C)CO)C[C@@H]2C)cc1
11	-6[16.7 µM]	CCCNC(=O)N(C)C[C@H]1Oc2ncc(-c3ccccc3F)cc2C(=O)N([C@H](C)CO)C[C@@H]1C
11	-2[16.7 µM]	C[C@H](CO)N1C[C@H](C)[C@@H](CN(C)S(C)(=O)=O)OCCCC[C@H](C)Oc2ccc(NC(=O)NC3CCCCC3)cc2C1=O
4	-60[16.7 µM]	CNC[C@H]1Oc2cc(C#Cc3ccc(F)cc3)ccc2S(=O)(=O)N([C@@H](C)CO)C[C@H]1C
16	4[16.7 µM]	O=S(=O)(NCC[C@@H]1CC[C@H](NS(=O)(=O)c2cccc(Cl)c2)[C@H](CO)O1)c1cccc(F)c1
12	3[16.7 µM]	CNC[C@@H]1Oc2ncc(-c3cncnc3)cc2C(=O)N([C@@H](C)CO)C[C@H]1C
-14	-7[16.7 µM]	Cc1noc(C)c1NC(=O)N(C)C[C@@H]1Oc2c(cccc2N(C)C)C(=O)N([C@@H](C)CO)C[C@@H]1C
5	-66[16.7 µM]	Cc1ccccc1-c1ccc2c(c1)O[C@H](CN(C)C(=O)Nc1ccccc1)[C@H](C)CN([C@H](C)CO)S2(=O)=O

5 structures from above, arranged by SMILES length, rising:
Yeast UUG start	HIV Env fusion	SMILES
-4	-3[16.7 µM]	O=C(C[C@H]1CC[C@@H]2NC[C@H](O)COC[C@H]2O1)NCCc1ccncc1
-31	-4[16.7 µM]	COCc1cn(CC[C@H]2CC[C@H](NC(=O)CCN3CCCCC3)[C@@H](CO)O2)nn1
-15	-31[16.7 µM]	C[C@@H]1CN([C@H](C)CO)C(=O)c2cc(Br)cnc2O[C@H]1CN(C)Cc1ccncc1
-9	3[16.7 µM]	C[C@@H]1CN([C@H](C)CO)C(=O)c2cc(NS(C)(=O)=O)ccc2O[C@@H]1CN(C)S(=O)(=O)c1ccc(Cl)cc1
-13	15[16.7 µM]	C[C@@H]1CN([C@H](C)CO)C(=O)Cc2cc(NC(=O)Nc3cccc4ccccc34)ccc2O[C@H]1CN(C)S(=O)(=O)c1ccc(F)cc1

Compound activity (PubChem)
